VDR inhibitor – Inhibitors of the vitamin D receptor (VDR): qHTS; Vitamin D3 receptor (Homo sapiens), P11473; VDR-SRC2-3 peptide fluorescence polarization, 2 h; Potency, µM, for the others: max response, negative = inhibition, actives largely listed as inhibitors; 400,000 compounds, 0.93% hits; AID 504847, 2011; active = well fitted inhibition curve with a large enough effect; inconclusive = small, poorly fitted or top-dose-only effect, or another doubt; inactive = no such curve, though single readings can be large or run the other way; note: series mostly up to about 120 µM
Target sequence (P11473 whole entry, looked up): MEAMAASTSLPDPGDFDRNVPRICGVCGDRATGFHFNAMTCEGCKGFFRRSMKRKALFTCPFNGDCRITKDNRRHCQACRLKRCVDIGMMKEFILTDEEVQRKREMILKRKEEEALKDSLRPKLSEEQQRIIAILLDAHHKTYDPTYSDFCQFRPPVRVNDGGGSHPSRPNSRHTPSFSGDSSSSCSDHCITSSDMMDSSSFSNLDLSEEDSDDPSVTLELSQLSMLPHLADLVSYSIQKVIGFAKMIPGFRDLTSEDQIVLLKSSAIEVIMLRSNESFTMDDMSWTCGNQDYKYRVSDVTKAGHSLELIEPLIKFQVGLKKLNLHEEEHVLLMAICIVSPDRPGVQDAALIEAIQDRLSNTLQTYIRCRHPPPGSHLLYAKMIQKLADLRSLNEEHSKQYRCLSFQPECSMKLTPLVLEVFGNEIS
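After 23 nl compound addition and a short centrifugation, plates sat for 2 hours at ambient temperature; polarization of fluorescence then indicated loss of VDR binding to peptide SRC2-3.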
Active calls of the source: *; & = joins results of further samples; ! = not confirmed by another sample. % is set by controls: 0 for no effect and ±100 for the full control effect; potency is the fitted concentration of half-maximal effect. Only part of the results is shown; rates above refer to the full screens.

COc1ccccc1OC(=O)Oc1ccccc1OC was read as VDR inhibitor 5%&5%.
`CC(C)(C(=O)c1cccnc1)c1cccnc1` gave VDR inhibitor -14%&1%.
O=C1CCc2cc(OCCCCc3nnnn3C3CCCCC3)ccc2N1 was read as VDR inhibitor 4%&-3%&2%.
`COc1ccc2c(CNCCc3ccccc3OC)c(C(=O)O)n(Cc3ccc(F)cc3Cl)c2c1` gave VDR inhibitor -2%.
`CCN(CCCCOC(=O)c1ccc(OC)c(OC)c1)[C@@H](C)Cc1ccc(OC)cc1` gave VDR inhibitor -4%.
Screening COC(=O)Nc1nc2ccc(S(=O)c3ccccc3)cc2[nH]1 (stereo not drawn) returned VDR inhibitor 1%.
`COc1cc(C(=O)NC(c2ccccc2Cl)c2cc(Cl)c3cccnc3c2O)cc(OC)c1OC` (stereo not drawn) gave VDR inhibitor 8%.
Screening CCc1cc(-c2n[nH]c(C)c2-c2ccc3c(c2)OCCO3)c(O)cc1O returned VDR inhibitor 3%.
For CCN(CC)S(=O)(=O)c1ccc(C(=O)O)cc1 the results were VDR inhibitor 8%&6%.
`O=C(Nc1ccc([N+](=O)[O-])cc1)Nc1ccc([N+](=O)[O-])cc1` gave VDR inhibitor 15%.
`COc1c(O)cc2c(c1O)[C@@H]1O[C@H](CO)[C@@H](O)[C@H](O)[C@H]1OC2=O` gave VDR inhibitor -13%.
Screening CCN(CC)CCOC(=O)C(c1ccccc1)c1ccccc1 returned VDR inhibitor -15%&-5%&-1%.
For Cc1nc2nc(NC(=O)c3cccc(Cl)c3)[nH]n2c(=O)c1Cc1ccccc1 the results were VDR inhibitor -4%.
For COc1ccc(Sc2ccc(NC(=O)c3ccccc3Cl)cc2C#N)cc1 the results were VDR inhibitor 1%.
`COc1ccc(-c2oc3c(CC=C(C)C)c(O[C@H]4OC(CO)C(O)C(O)C4O)cc(O)c3c(=O)c2O[C@@H]2OC(C)C(O)C(O)C2O)cc1` (stereo partly drawn) gave VDR inhibitor 7%.
Screening COc1cc(C(=O)NCCCCCC(=O)O)cc(OC)c1OC returned VDR inhibitor -1%&6%.
CCCCCCCCCCOCC(O)CN (stereo not drawn) was read as VDR inhibitor 4%.
NC(=O)NC(=O)Cc1ccccc1 was read as VDR inhibitor -17%.
`CCC(Cc1c(I)cc(I)c(N)c1I)C(=O)O` (stereo not drawn) gave VDR inhibitor inconclusive.
`CC[C@]12CCCN3CCc4c(n(c5ccccc45)[C@@](O)(C(=O)OC)C1)[C@@H]32` gave VDR inhibitor -3%.
CC(C)(C)c1ccc(S(=O)(=O)c2cnc(SCC(=O)Nc3ccc(F)c(Cl)c3)[nH]c2=O)cc1 was read as VDR inhibitor inconclusive.
`NC(=O)c1ccc([N+](=O)[O-])cc1Cl` gave VDR inhibitor -5%.
`Cc1ccsc1/C=C/C1=NCCCN1C` gave VDR inhibitor 17%&-11%&-13%&2%.
CC(C)(CO)[C@@H](O)C(=O)NCCCO was read as VDR inhibitor -4%&12%.
For CC[C@@]12CCCN3CCc4c(n(c5ccccc45)[C@](O)(C(=O)OC)C1)C32 (stereo partly drawn) the results were VDR inhibitor 1%.
`C#C[C@]1(O)CC[C@H]2[C@@H]3CCC4=CC(=O)CC[C@@H]4[C@H]3CC[C@@]21CC` gave VDR inhibitor -13%&-3%&-15%.
For CCOC(=O)Nc1ccc2c(c1)N(C(=O)CCN1CCOCC1)c1ccccc1S2 the results were VDR inhibitor -17%&1%&1%.
For Cc1ccc(C(=O)C(C)CN2CCCCC2)cc1 (stereo not drawn) the results were VDR inhibitor 6%.
`CN=C(N)NC(=O)Nc1c(C)cccc1C` gave VDR inhibitor 2%.
For Cc1cc(O)c2c(c1)C(=O)c1cccc(O)c1C2=O the results were VDR inhibitor 14µM*.
`COc1cc2[nH]c(=O)[nH]c(=O)c2cc1OC` gave VDR inhibitor 0%.
C[C@@H](Cc1cccc(C(F)(F)F)c1)NCCOC(=O)c1ccccc1 was read as VDR inhibitor 0%.
CC1(C)OC2CC(=O)OC[C@@]23C1CC(=O)[C@]1(C)C3CC[C@@]2(C)C(c3ccoc3)OC(=O)C3O[C@@]321 (stereo partly drawn) was read as VDR inhibitor 4%.
For Cc1ccc(CNC(=O)C2CCN(S(=O)(=O)c3c(C)noc3/C=C/c3ccccc3F)CC2)o1 the results were VDR inhibitor 6%.
For OCCOCCOCCO the results were VDR inhibitor -3%.
Screening CC(C)[C@@H]1C(=O)N(S(C)(=O)=O)[C@H]2CCN(C(=O)/C=C\CN3CCCCC3)[C@@H]12 returned VDR inhibitor 6%.
Screening CCCN(CCC)C(=O)[C@@H](CCC(=O)O)NC(=O)c1ccccc1 returned VDR inhibitor -3%.
For Nc1ncnc(Nc2ccccc2)n1 the results were VDR inhibitor -5%&1%.
CCCCN(CCCC)CC(O)c1cc(Cl)cc2c1-c1ccc(Cl)cc1/C2=C/c1ccc(Cl)cc1 (stereo not drawn) was read as VDR inhibitor 6%.
COc1cc2c(c(OC)c1OC)-c1c(cc(OC)c(OC)c1OC)C[C@H](C)[C@H](C)C2 was read as VDR inhibitor -23%.
CC1CCc2c(N3CCC(O)CC3)c(F)cc3c(=O)c(C(=O)O)cn1c23 (stereo not drawn) was read as VDR inhibitor -14%&-13%.
`c1ccc(CNCCNCc2ccccc2)cc1` gave VDR inhibitor 2%&3%.
`CN(C)CCO[C@](C)(c1ccccc1)c1ccccn1` gave VDR inhibitor -2%.
For O=C(NCCN1CCOCC1)c1ccc(Cl)cc1 the results were VDR inhibitor inconclusive.
CN1CCN(CCCN2c3ccccc3Sc3ccc(S(=O)(=O)N(C)C)cc32)CC1 was read as VDR inhibitor -2%&10%.
Screening NC(=O)c1ccc(-c2nc(-c3ccc4c(c3)OCO4)c(-c3ccccn3)[nH]2)cc1 returned VDR inhibitor 4%&-2%&8%.
For Nc1ccc(S(=O)(=O)NCc2ccccc2)cc1 the results were VDR inhibitor 3%.
`O=C(O)CCCCCCCC(=O)O` gave VDR inhibitor 5%&2%&5%.
For CCOc1ccc(NC(=S)N2CCC(C(O)(c3ccccc3)c3ccccc3)CC2)cc1 the results were VDR inhibitor -29%.
`Cc1ccc(Cc2c(C)nc3c(-c4ccccc4)c(C)[nH]n3c2=O)cc1` gave VDR inhibitor -17%.
`CN1CCN(C(=O)C2CCCCC2)CC1` gave VDR inhibitor 1%.
CCN1CC(CCN2CCOCC2)C(c2ccccc2)(c2ccccc2)C1=O (stereo not drawn) was read as VDR inhibitor -8%.
For C[C@@H]1[C@H](C)CC[C@@]2(C(=O)O[C@H]3O[C@@H](CO[C@H]4O[C@@H](CO)[C@@H](O[C@H]5O[C@@H](C)[C@@H](O)[C@@H](O)[C@@H]5O)[C@@H](O)[C@@H]4O)[C@@H](O)[C@@H](O)[C@@H]3O)CC[C@]3(C)C(=CC[C@H]4[C@@]5(C)C[C@@H](O)[C@@H](O)[C@](C)(CO)[C@@H]5CC[C@@]43C)[C@@H]12 the results were VDR inhibitor -2%.
CN1CCN(c2c(F)cc3c(=O)c(C(=O)O)cn4c3c2SCC4)CC1 was read as VDR inhibitor 7%&2%.
CN1CCC(=C2c3ccccc3CC(=O)c3sccc32)CC1 was read as VDR inhibitor 5%&2%&-7%&6%&15%&11%&-3%.
Cc1cc(NC(=O)C2CCN(S(=O)(=O)c3ccc4[nH]c(=O)oc4c3)CC2)ccc1Br was read as VDR inhibitor 11%.
For COC(=O)c1ccccc1C(=O)c1ccc(OCCN2CCCCC2)cc1 the results were VDR inhibitor 5%.
Screening COc1c(O)cc2c(c1O)[C@@H]1O[C@@H](CO)[C@@H](O)[C@@H](O)[C@@H]1OC2=O returned VDR inhibitor -3%.
`O=c1c(O[C@@H]2O[C@H](CO)C(O)C2O)c(-c2ccc(O)c(O)c2)oc2cc(O)cc(O)c12` (stereo partly drawn) gave VDR inhibitor -8%.
`Cc1c(C(C)C)c(=O)n(-c2ccccc2)n1C` gave VDR inhibitor 9%.
COc1ccc(Cn2c(CCC(=O)Nc3cccc(OC)c3)nc3cccnc32)cc1 was read as VDR inhibitor -4%.
`Cc1cn([C@H]2C[C@H](O)[C@@H](CO)O2)c(=O)[nH]c1=O` gave VDR inhibitor 3%&-2%.
For Cc1nc2c([nH]1)c(=O)n(C)c(=O)n2Cc1ccco1 the results were VDR inhibitor 7%&4%&7%.
Cc1cc(Cl)ccc1NC(=O)Cn1nc(C)c2c(C)n(-c3ccccc3)nc2c1=O was read as VDR inhibitor -2%.
Screening O=C1c2ccccc2C(=O)c2c(O)c(O)cc(O)c21 returned VDR inhibitor 50µM*!.
For COc1cc2oc(=O)ccc2cc1O the results were VDR inhibitor -1%.
CN(C)CCC[C@@]1(c2ccc(F)cc2)OCc2cc(C#N)ccc21 was read as VDR inhibitor -1%&-1%.
For CCCCOC(=O)c1ccc(N)cc1 the results were VDR inhibitor 1%&10%&9%.
CN1CCN(c2cc3c(cc2F)c(=O)c(C(=O)O)cn3-c2ccc(F)cc2)CC1 was read as VDR inhibitor 9%.
Screening CN=C(NC#N)Nc1ccc(C2=NNC(=O)CC2C)cc1 (stereo not drawn) returned VDR inhibitor 3%.
For CCC12CCCN3CCc4c(n(c5ccccc45)C(O)(C(=O)OC)C1)C32 (stereo not drawn) the results were VDR inhibitor inconclusive.
Screening CN1CCC(Nc2ncc3ncnc(Nc4ccc(F)c(Cl)c4)c3n2)CC1 returned VDR inhibitor 1%.
COc1ccc([C@@H]2CNC(=O)C2)cc1OC1CCCC1 was read as VDR inhibitor 2%.
Screening CCCN(CCC)C(=O)C(CCC(=O)O)NC(=O)c1ccccc1 (stereo not drawn) returned VDR inhibitor 6%&12%.
Screening CN(C)CCOC(=O)C(c1ccccc1)C1(O)CCCC1 (stereo not drawn) returned VDR inhibitor -1%&-8%.
`C[C@H]1C[C@@H]2[C@H]3CCC4=CC(=O)C=C[C@@]4(C)[C@@]3(Cl)[C@@H](O)C[C@]2(C)[C@]1(OC(=O)c1ccco1)C(=O)CCl` gave VDR inhibitor 1%.
For CCCC(=O)O[C@]1(C(=O)CCl)[C@H](C)C[C@@H]2[C@H]3CCC4=CC(=O)C=C[C@]4(C)[C@@]3(F)C(=O)C[C@@]21C the results were VDR inhibitor -10%.
For Nc1cc(=O)[nH]c(N)n1 the results were VDR inhibitor -9%&-19%.
`O=C(O)[C@@H]1[C@@H]2C[C@H]3c4[nH]c5ccccc5c4CCN3C[C@@H]2CC[C@@H]1O` gave VDR inhibitor -2%.
`COc1cc(NC(=O)c2cc(C3CC3)on2)c(OC)cc1Cl` gave VDR inhibitor -1%.
Screening O=C1c2c(O)cccc2C(C2OC(CO)[C@@H](O)[C@H](O)[C@H]2O)c2cc(CO)cc(O)c21 (stereo partly drawn) returned VDR inhibitor 7%.

Screening results (PubChem BioAssay)
